# Compound activity as filed in PubChem BioAssay.
# VACV Venus inh: inhibitors of vaccinia virus (Venus reporter) | Vaccinia virus Venus reporter expression, fluorescence | Potency, µM (highest dose often 36.5 µM), inactives show top-dose activity change, negative = inhibition, usual class: inhibitors | 330,000 tested, 0.46% active | AID 720580; active means well fitted inhibition curve with a large enough effect; inconclusive means small, poorly fitted or top-dose-only effect; inactive means no such curve, though single readings can be large or run the other way; tested in A549 cells; further: nearly all actives have a fitted effect of over 30% in size; inactives centre near -10
# Vaccinia mCherry: vaccinia inhibition (mCherry reporter); Vaccinia virus mCherry reporter infection, fluorescence; about a quarter of the inactives have no number; Potency, µM (top dose mostly 36.5 µM), inactives show at the highest dose activity change, negative = inhibition, most hits filed as inhibitors; 310,000 tested, 0.63% active; active = well fitted inhibition curve with a large enough effect; inconclusive = small, poorly fitted or top-dose-only effect; inactive = no such curve, though single readings can be large or run the other way; tested in A549 cells; further: nearly all actives have a fitted effect of over 35% in size; inactives centre near -10
# The depositor's hits bear a star; i = inactive; ? = inconclusive; / = not tested or not shown; & = joins results of further samples; [ ] = dose if it differs, or a comment. On the % scale 0 is the no-effect control and ±100 the full control effect; potency means the concentration at half of the fitted maximal effect.
SMILES,VACV Venus inh,Vaccinia mCherry
Cc1ccc(S(=O)(=O)NCCc2cn3ccsc3n2)cc1,-3.1%,-7.5%
Cc1cc(Cn2nc(C(=O)NCC3CC3)cc2-c2ccccc2)on1,-17.7%,i
Nc1nc(O)c2ncn([C@H]3CC[C@@H](CO)O3)c2n1,-14.7%,i
Cc1ccc(S(=O)(=O)CCOC(=O)CNC(=O)OCc2ccccc2)cc1,-17.2%,-14.3%
CCOC(=O)/C(C#N)=C1/C=CN(c2ccc(C)cc2)C=N1,-7.2%,i
CC1=C(C(=O)Nc2ccc(C)cc2)C(c2ccc(Cl)cc2)n2nnnc2N1 (stereo not drawn),-5.0%,-13.9%
O=C(CCSc1ccc(Cl)cc1)N1CCN(S(=O)(=O)c2ccccc2)CC1,-18.8%,-2.3%
CC1(C)CC(=O)C(Sc2ccccc2[N+](=O)[O-])=C(O)C1,-7.1%,i
Cc1cnc([N+](=O)[O-])n1CCOC(=O)NC(=O)c1ccc(F)cc1,2.2%,-7.5%
Cc1cc(C)n2nc(SCC(=O)N/N=C/c3ccccc3F)nc2n1,-9.6%,-13.3%
COC(=O)CCC(=O)Nc1cccc(Br)c1,-1.6%,/
CCCC1=NN(C(=O)C(=O)Nc2ccc(Br)cc2)C(O)(C(F)(F)F)C1 (stereo not drawn),-16.9%,-24.3%
O=C(Cc1ccc(NC(=O)C2CCN(C(=O)C3CCC3)CC2)cc1)Nc1cccc(C(=O)N2CCCCC2)c1,-6.2%,-9.7%
Cc1cc(C)c2nc(N(CCCN(C)C)C(=O)c3ccc(S(=O)(=O)N4CCCCCC4)cc3)sc2c1,?,-21.1%
CCS(=O)(=O)N1CCCC(C(=O)NCCCN2CCCC2=O)C1 (stereo not drawn),5.7%,/
C=CCn1c(SCc2ccc(Cl)c(Cl)c2)nnc1C(CO)NC(=O)c1ccc(OC)cc1 (stereo not drawn),-15.1%,?
Cc1ccc(-c2nc(CCNC(=O)C(=O)Nc3ccc(F)cc3F)cs2)cc1,-9.2%,-6.3%
COCCOC(=O)N/C=C\c1nc2ccccc2c(=O)[nH]1,-27.1%,?
COc1ccc(C(=O)N/N=C/c2ccc(OC(=O)c3cccc4ccccc34)c([N+](=O)[O-])c2)cc1,-14.6%,i
O=C1CC(N2CCN(Cc3ccc4c(c3)OCO4)CC2)C(=O)N1Cc1ccc(N2CCCC2=O)cc1 (stereo not drawn),-13.2%,-19.2%

# Continued, overlapping the part above by 4 compounds.
SMILES,VACV Venus inh,Vaccinia mCherry
Cc1ccc(-c2nc(CCNC(=O)C(=O)Nc3ccc(F)cc3F)cs2)cc1,-9.2%,-6.3%
COCCOC(=O)N/C=C\c1nc2ccccc2c(=O)[nH]1,-27.1%,?
COc1ccc(C(=O)N/N=C/c2ccc(OC(=O)c3cccc4ccccc34)c([N+](=O)[O-])c2)cc1,-14.6%,i
O=C1CC(N2CCN(Cc3ccc4c(c3)OCO4)CC2)C(=O)N1Cc1ccc(N2CCCC2=O)cc1 (stereo not drawn),-13.2%,-19.2%
CCN(CC)c1ccc(C2C(C(N)=O)=C(C)Nc3ncnn32)cc1 (stereo not drawn),-2.3%,-1.5%
N#Cc1sc2nc3c(c(-c4cccnc4)c2c1N)CCC3,-17.9%,i
Cc1ccccc1CNc1nc(N(C)C)nc2c1cnn2C,10.3%,-0.2%
Cc1ccc(S(=O)(=O)/N=C(/Nc2ccc([N+](=O)[O-])cc2[N+](=O)[O-])c2ccccc2)cc1,-24.2%,-6.1%
Cc1nn(C)c(C)c1CNC(=O)Nc1ccc(Cl)cc1,4.0%,i
O=C(CN1CCN(C(=O)c2cccc(S(=O)(=O)N3CCCC3)c2)CC1)Nc1cccc(F)c1,-7.0%,-10.1%
Cc1onc(-c2c(F)cccc2Cl)c1C(=O)NC1CCSC1=O (stereo not drawn),-6.4%,i
Cc1cc(C)n(-c2nc(SCC(=O)O)c3c4c(sc3n2)COC(C)(C)C4)n1,-8.7%,i
Cc1ccc(S(=O)(=O)NC[C@H]2O[C@@H](n3cnc4c(N)ncnc43)[C@H](O)[C@@H]2O)cc1,-1.2%,3.1%
Cc1ccc(C)c(Nc2nc3ccccc3[nH]2)c1,-6.4%,?
COc1ccc(-c2cc(C(=O)Nc3ccc(C)c(N)c3)c3ccccc3n2)cc1,-23.1%,?
Cc1cccc2nc(-c3cccnc3)c(Nc3ccc(C(C)C)cc3)n12,?,?
CN(C)C(=O)CSc1nc(-c2ccccc2)c(-c2ccccc2)o1,-5.9%,-19.6%
Cc1ccc(OCC(=O)Nc2nnc(S(=O)(=O)N3CCCCCC3)s2)cc1,-10.1%&-8.3%,-16.8%&-12.9%
O=S(=O)(c1ccccc1)N(CC1CO1)c1cccc2ccccc12 (stereo not drawn),-21.9%,-25.6%
Cc1ccc(C)c(N(CC(=O)NCCc2ccccc2)C(=O)CCC(=O)Nc2ccccn2)c1,-1.3%,-4.3%
CCN(CC)S(=O)(=O)c1ccc(C)c(NC(=O)/C=C/c2cccs2)c1,-28.5%,-19.0%
O=c1[nH]c2cc(Cl)ccc2c(O)c1-c1cccc(Oc2ccccc2)c1,-17.5%,-20.8%
CCc1nn(C(C)C(=O)Nc2cccc(C)c2C)c(=O)c2cc3occc3n12 (stereo not drawn),?,/
COc1ccc(CCNC(=O)c2nnc(Cc3ccc(Cl)cc3)o2)cc1OC,?,-13.7%&-8.9%
O=C(NCCCN1CCc2ccccc2C1)C1CCN(c2nnc(-n3cccc3)s2)CC1,-4.8%,-13.7%
COc1ccc(CCNS(=O)(=O)c2ccc(Cl)s2)cc1OC,-10.5%,i
O=C1c2ccccc2S(=O)(=O)N1CC(O)COc1ccc(Cl)cc1 (stereo not drawn),-7.8%,-12.4%
COc1ccc(Cn2cc(CN3CC(N4CCN(CCO)CC4)CS3(=O)=O)nn2)cc1 (stereo not drawn),-1.6%,i
COc1cccc(N(CC(=O)Nc2cccc(N(C)S(C)(=O)=O)c2)S(C)(=O)=O)c1,-23.9%,-14.9%
CC(Sc1ccc2c(c1)OCCO2)C(=O)Nc1ncc(Cl)cc1Cl (stereo not drawn),-25.6%,/
COC(=O)C1=C(c2cc3ccccc3s2)C[C@@H]2CC[C@H]1N2C(=O)NCc1cccc2ccccc12,?,-20.2%
CC(C)(C)c1ccc(OCCCC(=O)NC2=NCCS2)cc1,-24.6%,i
c1ccc(C2CC3CC(c4ccccc4)N2O3)cc1 (stereo not drawn),-9.3%,-12.6%
COc1ccc(-c2nnc(SCC(=O)c3ccc(O)cc3O)o2)cc1,-2.3%,-10.3%
CC1CN(CCc2ccccc2)CC(C)O1 (stereo not drawn),-12.2%,-4.8%
COc1ccc(-c2csc(C(C)(O)c3ccc(F)c(F)c3)n2)cc1 (stereo not drawn),?,i
CO/N=C/c1cccn1-c1nccc(N(C)C)c1C#N,11.3%,-2.3%
CSc1ccc(CN(C)CC(=O)Nc2cccc(Br)c2)cc1,-7.4%,-10.1%
CC1CCCC(C)N1/N=C/c1ccccc1C(=O)O (stereo not drawn),2.0%,i
COc1ccc2cc3cc(C(=O)N4CCN(c5ccc(C(C)=O)cc5)CC4)sc3nc2c1Cl,-10.6%,-13.2%
O=C(Nn1c(C2CCCCC2)nc2ccccc2c1=O)c1ccc([N+](=O)[O-])cc1,-11.3%,-8.6%
Cc1c(N(CC(=O)O)S(=O)(=O)c2ccccc2)c(=O)n(-c2ccccc2)n1C,-2.2%,-14.4%
O=C(Cc1ccc(NC(=O)C2CCCN(C(=O)C3CC3)C2)cc1)Nc1ccc(C(=O)N2CCOCC2)cc1 (stereo not drawn),-2.6%,-7.1%
CCn1cc(C(=O)OCC(=O)N2C(C)CCCC2C)c(=O)c2ccc(C)nc21 (stereo not drawn),-10.5%,-4.0%
Cc1ccc(S(=O)(=O)Cn2nnnc2C(C(C)C)N2CCN(Cc3ccco3)CC2)cc1 (stereo not drawn),-40.3%,-20.5%
COc1ccccc1N1CCN(C(=O)c2ccc(S(=O)(=O)N3CCCCCC3)cc2)CC1,?,/
O=C(c1cc(-c2ccncc2)nc2ccc(Br)cc12)N1CCN(c2ccccn2)CC1,-8.6%,/
COC(=O)COc1ccc(S(=O)(=O)Nc2ccc(C(N)=O)cc2)cc1,-3.6%,-14.1%
CC1(C(=O)NS(=O)(=O)c2ccc(Br)cc2)CCN1C(=O)CCc1ccccc1 (stereo not drawn),8.9%,16.0%
O=C(CSc1nnc(-c2ccccc2)n1Cc1ccccc1)N1CCCC1,?,-16.6%
Cc1ccccc1C(=O)Nc1c(C(=O)N2CCN(C)CC2)cnn1-c1ccccc1,-11.7%,-10.5%
CC1CCN(CCC(=O)N/N=C/c2ccc([N+](=O)[O-])cc2)CC1,0.4%,-2.8%
CCC(=O)Nc1cccc(NC(=O)c2ccc(C)cc2Cl)c1,-5.9%,-0.9%
COc1ccc(CSc2nnc(C)s2)cc1F,-8.4%,i
O=C1c2cc(S(=O)(=O)NCCO)ccc2-c2ccc(S(=O)(=O)NCCO)cc21,-12.2%,i
CCOc1ccccc1C1C(C#N)=C(N)Nc2onc(-c3ccccc3)c21 (stereo not drawn),16.4%,/
CCN1C[C@@H]2[C@@H]3C(=O)N(Cc4ccccc4)C(=O)[C@@H]3[C@](CC)(C1=O)N2C(=O)c1ccc(Cl)c(Cl)c1,-15.8%,i
Cc1ccc(NC(=O)CSc2ncc(-c3ccccc3)[nH]2)cc1,-14.7%,-6.0%
O=C(Nc1cccc(-c2ccc3nncn3n2)c1)c1ccco1,-6.6%,-4.8%
COc1ccccc1C1CN(CC(=O)N2CCC(C(O)c3ccccn3)CC2)Cc2ccccc2O1 (stereo not drawn),-15.3%,-23.2%
Cc1ccc(OCCNC(=O)C2CCCCC2)cc1,-6.1%,i
COc1ccc(-c2cccc3c2OC(CNC(=O)c2ccccc2-n2cccn2)C3)nn1 (stereo not drawn),7.8%,-6.4%
CC1CCCCC1NC(=O)/C(C#N)=C/c1ccc(F)c(F)c1 (stereo not drawn),-8.4%,-9.3%
COc1ccc(N(CC(=O)NC2CCCCCC2)S(=O)(=O)c2ccccc2)cc1Cl,-15.7%,i
# Continuation.
SMILES,VACV Venus inh,Vaccinia mCherry
Cc1ccc(C(=O)COC(=O)CCN2C(=O)C3C4CCC(C4)C3C2=O)cc1[N+](=O)[O-] (stereo not drawn),3.3%,-25.8%
CCCCCCCCN1C(=O)[C@H](CC(=O)NCCC(C)C)C[C@@]2(C(=O)OCC)CCCC=C12,-10.8%,21.0%
O=CNCC(=O)NC1CCCCCC1,-5.1%,i
COc1ccc(C2=Nn3c(nnc3-c3cc(C)[nH]n3)SC2)cc1,-16.4%,-21.4%
COC(=O)C1=C(c2cccc(OC)c2OC)C[C@@H]2CC[C@H]1N2C(=O)NC1CCCCC1,-0.3%,-13.0%
O=C(O)C(C/C(=N/O)c1ccc(Br)cc1)P(=O)(c1ccccc1)c1ccccc1 (stereo not drawn),-19.7%,-12.1%
COc1cccc2c1C1COC3C4CC(C(=O)O)C(C(C2)N13)N4C (stereo not drawn),-10.2%,i
CC(=C/c1ccc(C(C)C)cc1)/C=N/NC(=O)Cn1nc(C)cc1C,118.4%[activator],97.8%[activator]
S=c1sc2ccccc2n1CCc1ccncc1,-12.4%,-8.9%
Cc1nc2nc(SCC(=O)NC3CCCCC3)nn2c(C)c1Cc1ccccc1Cl,-4.5%,-3.5%
N#Cc1ccc(C(=O)Nc2ccccc2-c2nc3ccccc3s2)c(F)c1,-0.4%,7.1%
Cc1c(CCO)c(=O)[nH]n1S(=O)(=O)c1ccc([N+](=O)[O-])cc1,?,?
CCOC(=O)c1c(C)nsc1NC(=O)c1ccco1,-11.8%,-3.2%
Cc1ccc(-n2nc(C)c3c(C(=O)Nc4ccc(C)cc4Cl)cc(C)nc32)cc1,9.7%,-9.1%
COC(=O)c1ccc(N(C(=O)c2ccco2)C(C(=O)NC2CCCC2)c2ccco2)cc1 (stereo not drawn),-2.2%,-2.2%
COc1ccccc1NC(=O)Cn1cnc2c(cnn2-c2ccc(C)c(C)c2)c1=O,-15.5%,-5.9%
CCN(CC)S(=O)(=O)c1ccc(Cl)c(C(=O)NC2CCCC2)c1,-33.0%,?
COc1ccc(-c2nc3c(-c4ccc(F)cc4)cnn3cc2C)cc1F,-0.4%,-7.8%
O=C(N[C@@H]1CCC(=O)N(CC[C@H](Sc2ccccc2)c2ccccc2)CC1)OCc1ccccc1,?,-15.1%
O=C(CNC(=O)c1ccc(Br)o1)NCc1cccc(Cl)c1,1.9%,i
Fc1cccc(NC(=S)N2CCCCC2)c1,9.4%,/
O=C(NNC(=S)Nc1ccccc1)c1cccs1,-10.6%,-12.3%
CCSc1nc2ccccc2n1CC(=O)N1CCCCC1,7.1%,/
CCOc1ccc(/C=C/C(=O)Nc2sc3c(c2C(=O)OC)CCCC3)cc1,-1.7%,0.5%
CCN(CC)S(=O)(=O)c1cc(C(=O)OCC(=O)Nc2cccc(S(=O)(=O)N(C)C)c2)ccc1F,-7.5%,i
CCOc1cccc(C2C(C(=O)c3ccc(C)o3)=C(O)C(=O)N2c2nnc(C)s2)c1 (stereo not drawn),-6.4%,-2.5%
Cc1cccc(NS(=O)(=O)c2cccc(C(=O)NCCCN3CCOCC3)c2)c1,-13.0%,i
CCc1ccc(C2CC(c3ccccc3C)n3nc(N)nc3N2)cc1 (stereo not drawn),-5.0%,-4.6%

# 4 of these compounds in another layout:
# Sequence of screens: VACV Venus inh | Vaccinia mCherry
Cc1cccc(NS(=O)(=O)c2cccc(C(=O)NCCCN3CCOCC3)c2)c1
→ -13.0% | i
O=C(NNC(=S)Nc1ccccc1)c1cccs1
→ -10.6% | -12.3%
CCc1ccc(C2CC(c3ccccc3C)n3nc(N)nc3N2)cc1 (stereo not drawn)
→ -5.0% | -4.6%
CCOc1cccc(C2C(C(=O)c3ccc(C)o3)=C(O)C(=O)N2c2nnc(C)s2)c1 (stereo not drawn)
→ -6.4% | -2.5%
